Assay outcomes (PubChem BioAssay)
CBX7 AlphaScr – CBX7 inhibition, primary AlphaScreen; O95931; AlphaScreen His6-CBX7 / biotin-H3K27me3 peptide binding; stronger effect = lower value; normalised signal (fraction of DMSO) (concentration not given with the values); 1.1% of 66,000 active; in the data active = normalised signal below about 0.5;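 also: 100 nL library stock added to about 20 µL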
Target sequence (O95931 whole entry, looked up): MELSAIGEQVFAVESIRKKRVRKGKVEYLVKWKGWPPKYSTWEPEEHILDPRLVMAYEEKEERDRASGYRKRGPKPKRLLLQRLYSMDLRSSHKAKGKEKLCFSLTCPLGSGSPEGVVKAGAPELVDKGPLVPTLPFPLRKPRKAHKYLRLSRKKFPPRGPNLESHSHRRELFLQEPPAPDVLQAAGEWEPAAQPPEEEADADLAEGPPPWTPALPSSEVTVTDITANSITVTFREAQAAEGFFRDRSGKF
CBX7 AlphaScr z-score – further read-out of CBX7 AlphaScr, marked with its call; z-score; measured here: z-score of CBX7 signal; some inactives read as strong as hits; reference of the scale not given here;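 same signal on another scale; lower means less binding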
* hit, by the source's call; & = joins results of further samples. Not all compounds are listed; count on the stated rates, not on these rows.

SMILES | CBX7 AlphaScr | CBX7 AlphaScr z-score
Cc1c(C(=O)N2CCCc3ccccc32)oc2ccc(S(=O)(=O)N3CCOCC3)cc12 | 0.92 | -1.8
CC(C)c1ccccc1OCC(=O)NCCc1nc2ccccc2[nH]1 | 0.9 | -2.6
CCN1CCN(C(=O)c2c(-c3ccccc3)noc2C)CC1 | 0.99 | -0.014
COc1ccc2cc(CCNC(=O)c3ccccc3C)c(=O)[nH]c2c1 | 1 | 0.86
COc1ccc(Nc2cc(C(=O)NCCc3ccccc3)c3ccccc3n2)c(OC)c1 | 0.75 | -3.9
c1ccc(-c2nc(-c3cccs3)[nH]c2-c2cccs2)cc1 | 0.62 | -0.38
O=S(=O)(Nc1cccc(-c2cn3ccccc3n2)c1)c1ccc(-c2ccccc2)cc1 | 1 | 1
Cc1cc(C(=O)Nc2ccc(OC(F)(F)F)cc2)no1 | 1 | 0.58
O=C(NCC1COc2ccccc2O1)c1cc(Nc2cccc(C(F)(F)F)c2)nc2ccccc12 (configuration not stated) | 1.3 | 12
Cc1c(C(=O)Nc2ccc(Oc3ccccc3)cc2)sc2ncn(Cc3ccccc3F)c(=O)c12 | 1.1 | 0.46
Cc1ccc(C(=O)O)c(C(=O)Nc2nc3ccccc3s2)c1 | 1.1&1.1 | 1.7&1.3
O=C(CCn1c(=O)c2sccc2n(Cc2ccccc2F)c1=O)NCc1ccc2c(c1)OCO2 | 1 | 0.51
COc1ccc(-n2ccnc2SCC(=O)Nc2nccs2)cc1 | 0.89 | -0.15
c1ccc(C(Cc2nc(-c3ccccn3)no2)c2ccccc2)cc1 | 1.1 | 1.6
Cc1ccc(-c2cn(-c3cccc(Cl)c3)c(S(=O)(=O)CC(=O)Nc3ccc(F)cc3)n2)cc1 | 0.75 | -0.44
Cc1ccc(NC(=O)CSc2nc3ccccc3nc2Cc2ccc(F)cc2)cc1F | 1 | 0.15
CC1(C)CC(=O)c2cc(C(=O)Nc3ccccc3F)c(=O)n(-c3ccccc3)c2C1 | 1.1 | 1.2
COc1ccc(OC)c(NC(=O)c2c(NCc3cccc(OC)c3OC)sc3c2CCC3)c1 | 0.86 | -1.5
CC1(C(=O)NC2CCCCC2)CCC(=O)N1CCN1CCOCC1 (configuration not stated) | 0.89 | -1.8
Cc1ccc2c(c1)-c1c(cnn1CC(=O)Nc1cccc(Cl)c1)CO2 | 0.97 | -0.77
Cc1ccccc1Nc1c(-c2c[nH]c3ccccc23)nc2ncccn12 | 0.97 | -0.92
COc1cc(Cl)c(C)cc1NC1c2ccccc2C(=O)N1c1cc(C)ccn1 (configuration not stated) | 0.86 | -4.9
COc1cccc(NC2c3ccccc3C(=O)N2Cc2ccccc2)c1 (configuration not stated) | 0.91 | -1.3
CCOC(=O)C1CCN(C(=O)c2cnn(-c3ccccc3)c2NC(=O)c2ccccc2C)CC1 | 1.1 | 1.4
CC(C)N1C(=O)CCC1C(=O)N1CCN(c2ccccc2)CC1 (configuration not stated) | 1 | 0.62
O=C(NC1CCCCCCC1)C1c2cccn2CC(=O)N1Cc1ccc2c(c1)OCO2 (configuration not stated) | 0.95 | -0.11
COc1ccccc1OCc1nc2ccccc2n1Cc1ccc(C)cc1 | 1.1 | 0.63
Cc1cc(N2CCOCC2)nc2ccc(NC(=O)CCC(=O)N3CCCCC3)cc12 | 1 | 0.026
CCC(=O)c1ccc(Oc2nnc(-c3ccccc3)c3ccccc23)cc1 | 0.99 | -0.14
CCN(Cc1ccccc1)S(=O)(=O)c1ccc(C(=O)Nc2nnc(C)o2)cc1 | 0.0031* | -1.3*
Cc1noc(/C=C/c2cccs2)c1S(=O)(=O)N1CCC(C(=O)NC2CCCCCCC2)CC1 | 0.96 | -0.088
COCc1cc(C)nc(SCC(=O)Nc2ccccc2)c1C#N | 1 | 1.5
COc1ccc(C2(C(=O)Nc3ccc(F)cc3)CCCC2)cc1OC | 1 | 0.27
N#Cc1nc(CNc2ccccc2)oc1Nc1ccccc1 | 0.82 | -2.3
CC(C(=O)NC1CCCCC1)C1Sc2ccccc2NC1=O (configuration not stated) | 1 | 0.11
CCc1ccc(-c2nc3cc(NC(=O)c4ccc(F)cc4)ccc3o2)cc1 | 1 | 1.4
CCOC(=O)N1CCN(c2c(N3CCN(Cc4ccccc4)CC3)c(=O)c2=O)CC1 | 0.97 | -0.89
Cc1ccc(-n2nc3c(c2NC(=O)CCC2CCCCC2)CSC3)cc1 | 1.1 | 1.1
CCCCCC(=O)Nc1ccc(S(=O)(=O)Nc2cc(OC)nc(OC)n2)cc1 | 1.1 | 0.4
Cc1nc(NC2CCCCC2)c2c3c(sc2n1)CCC3 | 0.94 | -1.6
COC(=O)c1ccc(-n2nnnc2SCC(N)=O)cc1 | 1.1 | 0.99
COC(=O)N1c2ccccc2NC(=O)CC1C (configuration not stated) | 1.1 | 1
COc1ccc2nc(C)cc(Nc3ccc(Oc4ccc(Cl)c5ccccc45)c(Cl)c3)c2c1 | 0.78 | -4.8
COCCNC(=O)C1CC(c2ccc(F)cc2)=NO1 (configuration not stated) | 0.99 | -0.3
Cc1cc(F)ccc1NC(=O)CN1C(=O)COc2ccc(S(=O)(=O)N3CCOCC3)cc21 | 0.98 | -0.5
CCc1ccc(CNC(=O)c2cn(C3CCCC3)c(=O)c3c2c2ccccc2n3C)cc1 | 1 | 0.61
FC(F)(F)c1nc(Nc2ccc3ccccc3c2)sc1-c1cccc(Cl)c1 | 1.4 | 8.9
Cn1nc(CC(=O)Nc2nc(-c3ccccc3)cs2)c2ccccc2c1=O | 0.96 | -1
CC(=O)N1CCC(N(C(=O)Nc2ccc(Cl)cc2)C2CCCCCC2)CC1 | 1 | 0.29
CC1(C)CC(=O)c2sc(NC(=O)C(C)(C)Oc3ccc(Cl)cc3)nc2C1 | 0.99 | -0.41
COc1ccc(C2=NOC(C(=O)NC3CCCCC3)C2)cc1 (configuration not stated) | 1 | 0.05
CSc1oc(-c2ccc(C)cc2)nc1S(=O)(=O)c1ccc(F)cc1 | 0.92 | -0.65
CN1CCN(C(=O)c2cc3nc(-c4ccc(Br)cc4)cc(C(F)(F)F)n3n2)CC1 | 1 | 0.23
Cc1ccc(N(CC(O)CN2CCCC2)S(=O)(=O)c2ccccc2)cc1 (configuration not stated) | 1.4 | 0.89
CC(=O)N(CC(N)=O)C1(C(=O)Nc2ccc3c(c2)OCCO3)CCCC1 | 1.1 | 0.9
Cc1cc(C)nc(N=C(N)N2CCC(Cc3ccccc3)CC2)n1 | 0.97 | -0.61
Cc1cc(C)nc(SCc2cn3cccnc3n2)n1 | 0.78 | -0.88
COc1cc2c(cc1OC)C(C(=O)N1CCC3(CC1)OCCO3)C1c3ccccc3CCN1C2=O (configuration not stated) | 0.96 | -1.3
COc1ccc(CCNC(=O)C(C(C)C)N2C(=O)c3ccccc3C2=O)cc1OC (configuration not stated) | 1 | 1.8
COc1cc(S(=O)(=O)NCCc2c(C)[nH]c3ccc(C)cc23)ccc1Cl | 0.43* | -0.57*

Next entries follow:
SMILES | CBX7 AlphaScr | CBX7 AlphaScr z-score
CCOC(=O)CSc1nnc(Cc2cc(=O)[nH]c(=O)[nH]2)n1-c1cccc(OC)c1 | 0.8 | -3
COc1cccc2c(Nc3ccc(C)cc3)cc(C)nc12 | 1.2 | 2
CCOC(=O)CN1CC23C=CC(O2)C(C(=O)NCc2ccc(C)cc2)C3C1=O (configuration not stated) | 1.1 | 0.055
Cc1cc(N2CCN(c3cc(Cl)ccc3C)CC2)n2nc(C)c(-c3ccc(Cl)cc3)c2n1 | 1.1 | 5.8
COc1ccc(CCNc2nc(-c3ccccc3OC)cc(C(F)(F)F)n2)cc1OC | 1 | 1.5
COc1ccc(NC(=O)C(=O)NCCCN2CCOCC2)cc1 | 1.1 | 0.77
COC(=O)c1ccc(N2CCC(C)CC2)c(NC(=O)Nc2ccc(Cl)cc2)c1 | 1.3 | 0.33
OC(CNCC1(c2ccccc2)CCCC1)COc1ccccc1 (configuration not stated) | 0.96 | -1.3
COc1ccc(C2=NOC(C(=O)N3CCc4ccccc4C3)C2)cc1 (configuration not stated) | 1 | 0.0088
COc1ccc(-n2cc(-c3ccccc3)nc2SCC(=O)c2ccccc2)cc1 | 0.7 | -7.9
Cc1c(C(=O)NCCCN2CCOCC2)sc2nc(-c3ccc(F)cc3)cn12 | 0.99 | -0.17
CCSc1nnc2c(n1)OC(CC)Nc1ccccc1-2 (configuration not stated) | 1 | -0.008
COc1ccc(-c2noc(COc3ccc(Br)cc3C)n2)cc1 | 1.1 | 0.67
COc1ccc(Cl)cc1C(=O)Nc1c2c(nn1-c1cccc(C)c1)CSC2 | 1.1 | 1.4
COc1cccc(-c2nn(C)c3sc(C(=O)NCC4CCCO4)cc23)c1 (configuration not stated) | 1.2 | 2.1
CC(C)NC(=O)CN1C(=O)CSc2ccc(S(=O)(=O)N3CCCCC3)cc21 | 1 | 0.027
CCC(C)NC(=O)c1sc2ncn(CC(=O)NCCCOC)c(=O)c2c1C (configuration not stated) | 1.2 | 5.4
O=C(NCCCN1CCC(Cc2ccccc2)CC1)C1CCC(=O)N1C1CCCC1 (configuration not stated) | 1 | 0.098
CN1CCN(CCCNC(=O)c2ccc3c(c2)NC(=O)c2ccccc2S3)CC1 | 0.95 | -1.1
COc1ccc(C2(CNC(=O)c3ccc(F)cc3)CCCC2)cc1OC | 1.1 | 2.1
Cc1ccc2[nH]c(=O)c(CN3CCOCC3)c(-c3ccccc3)c2c1 | 0.99 | -0.39
CC(C)NS(=O)(=O)c1ccc2[nH]c(=O)c(=O)[nH]c2c1 | 0.98 | -0.42
CCOc1ccc2nc(N3CCC(C(=O)N4CCC(C)CC4)CC3)sc2c1 | 0.8 | -0.87
COc1ccc(C2NC(=O)c3c(sc4c3CCCC4)N2)cc1OC (configuration not stated) | 0.89 | -1.9
O=C(CN1N=C(c2ccc(Cl)cc2)CCC1=O)NCCCN1CCC(Cc2ccccc2)CC1 | 1.2 | 2.5
CN(CCc1ccccn1)C(=O)C1CCC(Cn2c(=O)[nH]c3ccsc3c2=O)CC1 (configuration not stated) | 1 | 0.02
CCOC(=O)c1cnc2c(ccc3ccccc32)c1Nc1cccc(C(=O)OC)c1 | 1 | 0.18
COc1cc(C(=O)Nc2cc(-c3nc4ncccc4o3)ccc2C)ccc1OCc1ccc(Cl)cc1 | 1 | 0.59
COC(=O)c1c[nH]n2c(NC3CCCCC3)c(-c3ccc(F)cc3)nc12 | 0.55 | -8.9
CCC(C(=O)NC1CCCC1)n1c(SCc2cc(C)ccc2C)nc2ccncc21 (configuration not stated) | 0.98 | -1.1
O=C1Cc2cc(S(=O)(=O)N3CCCCC3)ccc2N1 | 1 | 0.38
COc1cccc(OC)c1C(=O)Nc1ccccc1-c1nc2ccccc2s1 | 1 | 0.55
O=C(Nc1ccc(-c2nc3ccccc3o2)cc1)c1ccc(S(=O)(=O)N2CCCCC2)cc1 | 0.94 | -0.47
Cc1ccc2c(c1)NC(=O)C(CC(=O)NCCc1ccc(S(N)(=O)=O)cc1)O2 (configuration not stated) | 1 | 1.5
COc1ccc(Cl)cc1NC(=O)c1c(NCc2ccccn2)sc2c1CCCCC2 | 0.77 | -0.26
CCOc1ccc(NC(=O)c2c(NC(=O)c3ccc(C)cc3)sc3c2CCC3)cc1 | 1.1 | 2
Cc1ccc(Nc2nc(-c3cccc(N4C(=O)c5ccccc5C4=O)c3)cs2)cc1C | 1&0.74 | -0.025&-3.3
Cc1cc(C)c2nc(Nc3nc(O)cc(=O)[nH]3)nc(C)c2c1 | 0.94 | -1.1
COc1ccc(C2C(C(=O)Nc3cccc(OC)c3)CCC(=O)N2c2ccc3c(c2)OCO3)cc1 (configuration not stated) | 0.95 | -0.52
O=C(CSc1ncc(-c2ccc(Br)cc2)[nH]1)Nc1cc(F)ccc1F | 0.82 | -0.42
Cc1ccc(-c2noc(CCC(=O)NC(C)c3ccc4c(c3)OCCO4)n2)cc1 (configuration not stated) | 1.1 | 0.94
